Screening data: PubChem BioAssay, National Center for Advancing Translational Sciences (NCATS)
D2 PAM: human D2 receptor positive allosteric modulation; AID 624464; P14416; potentiation, % (test concentration not listed); DiscoveRx D2 beta-arrestin cells, luminescence, 90 min; 100% = 57 uM dopamine signal; 0.23% of 360,000 active; active = potentiation of 50% or more; inconclusive = 30% to 50%; inactive = 30% or less;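 note: compound concentration not given in the record; tested on top of an EC20 dose of dopamine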
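PathHunter D2 cells, attached overnight at 37 deg C, received compound in DMSO plus dopamine at EC20 (50 nM final) for 90 min at 37 deg C. Beta-arrestin recruitment was read as luminescence after 1 h with detection reagent at ambient temperature.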
TRPML1 ag: activates the human TRPML1 channel. TRPML1-expressing cells, Ca2+ dye fluorescence, FDSS; host cell line not named in the record; reference of the full effect not given here. activation, % (no concentration beside the values). 0.12% of 410,000 active. AID 624414; in the data active = activation above about 50%; inconclusive = about 30% to 50%; inactive = below about 30%; note: 0% is about no effect; the text of the record puts the active cut at 80%
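In this qHTS format, compounds were pin-transferred onto Ca8-dye-loaded TRPML1-DL cells induced with Tet overnight, and intracellular Ca2+ fluorescence was recorded kinetically for 110 s after a 10 s baseline. A subsequent 4uM final 54-4 (EC80) addition followed by a second 110 s read served as the antagonist phase.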
TRPML1 blocker: human mucolipin-1 channel inhibition; Q9GZU1; TRPML1-inducible cells, Ca2+ dye fluorescence, FDSS; hits give low values; inhibition of EC80 agonist-evoked calcium signal; activity change, negative = inhibition, % (test concentration not listed); 0.02% of 390,000 active; AID 624415; in the data active means activity change below about -50%; inconclusive means about -30% to -50%; inactive means above about -30%;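 note: stimulus is agonist 54-4 at its EC80 concentration; % is set by controls: 0 for no effect and ±100 for the full control effect; compound concentration not given in the record; the text of the record puts the active cut at -80%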
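Calcium fluorescence in TRPML1-DL cells induced overnight with Tet: a 110 s read after compound pin addition, then a 110 s antagonist read after challenge with 54-4 at 4 uM final (EC80).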
PINK1 modulator: modulators of PINK1 expression; AID 624263; Potency, µM (highest dose often 76.6 µM), for inactives: top-dose activation (PINK1 increase), usual class: activators; PINK1 immunofluorescence, high-content cytometry, 24 h; 0.2% of 410,000 active; active = well fitted activation curve with a large enough effect; inconclusive = small, poorly fitted or top-dose-only effect; inactive = flat fitted curve, though single readings scatter; cell line not stated here;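 note: potency is the fitted concentration of half-maximal effect; % of control where 0% means no effect; nearly all actives have a fitted effect of over 65% in size; a mitochondrial uncoupler was the plate control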
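A stable cell line was treated with compounds at 5 concentrations for 24 hours, with CCCP as control. PINK1 levels and mitochondrial localization were measured by immunofluorescence with mitochondrial, cell and nuclear markers after fixation, read by laser-scanning cytometry.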
D2 agonist: activates the human D2 dopamine receptor. P14416. DiscoveRx PathHunter D2 beta-arrestin, luminescence, 90 min; 100% = 57 uM dopamine signal. activation, % (test concentration not listed). 0.084% of 360,000 active. AID 624465; in the data active = activation above about 40%; inconclusive = about 15% to 40%; inactive = below about 15%; note: compound concentration not given in the record; the text of the record calls up to 30% inactive
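DiscoveRx PathHunter D2 beta-arrestin cells (2,100/well) attached overnight, then compound-stimulated 90 min at 37 C in HBSS/10 mM HEPES/0.1% Tween-20 buffer; beta-galactosidase complementation read by luminescence after 1 h at ambient temperature. Dopamine 57 uM final (EC100) as control.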
Six1-Eya2 blk: Six1/Eya2 interaction inhibition; Q15475+O00167; AlphaScreen GST-Six1/His-Eya2 binding, biochemical; hits give low values; control for the full effect not named in the record; activity change, % (no concentration beside the values); 0.56% of 360,000 active; in the data active = activity change below about -65%; inconclusive = about -30% to -65%; inactive = above about -30%; note: % is set by controls: 0 for no effect and ±100 for the full control effect; compound concentration not given in the record
Target sequence (O00167 whole entry, looked up): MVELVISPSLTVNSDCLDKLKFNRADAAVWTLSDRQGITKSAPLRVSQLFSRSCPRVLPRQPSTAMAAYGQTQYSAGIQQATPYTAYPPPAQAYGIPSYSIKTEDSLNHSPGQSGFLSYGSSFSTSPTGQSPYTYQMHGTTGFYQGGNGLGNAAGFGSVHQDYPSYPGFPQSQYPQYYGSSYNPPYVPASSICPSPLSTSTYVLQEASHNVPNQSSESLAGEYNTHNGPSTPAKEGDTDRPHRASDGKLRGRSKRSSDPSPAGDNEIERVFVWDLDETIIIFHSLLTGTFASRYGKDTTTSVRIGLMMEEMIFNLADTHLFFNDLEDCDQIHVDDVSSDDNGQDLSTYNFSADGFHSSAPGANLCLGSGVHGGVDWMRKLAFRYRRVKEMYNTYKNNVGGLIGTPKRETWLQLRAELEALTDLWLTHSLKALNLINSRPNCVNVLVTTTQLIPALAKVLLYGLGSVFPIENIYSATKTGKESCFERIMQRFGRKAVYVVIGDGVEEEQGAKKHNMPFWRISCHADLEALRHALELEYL
Target sequence (Q15475 whole entry, looked up): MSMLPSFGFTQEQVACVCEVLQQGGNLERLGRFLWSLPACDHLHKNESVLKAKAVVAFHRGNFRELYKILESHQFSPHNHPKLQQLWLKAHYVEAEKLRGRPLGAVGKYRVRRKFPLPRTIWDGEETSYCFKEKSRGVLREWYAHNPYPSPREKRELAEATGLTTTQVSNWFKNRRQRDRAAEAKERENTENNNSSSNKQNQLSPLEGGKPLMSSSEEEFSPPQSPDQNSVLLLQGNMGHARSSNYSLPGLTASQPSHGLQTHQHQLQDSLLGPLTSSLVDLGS
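Six1/Eya2 binding was read as AlphaScreen signal after compounds were pinned into GST-Six1 plus His-tagged Eya2 (5X stock 250/500 nM) in pH 8.0 Tris/NaCl/TCEP buffer, beads added, then incubated 1 h, 37 C, dark.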
Numbers without * were called inactive; [ ] = dose if it differs, or a comment.

`N#Cc1c(-c2ccc(F)cc2)c(-c2ccc(F)cc2)nn(CCO)c1=O` gave D2 PAM -9, TRPML1 ag -0.6, TRPML1 blocker -12, PINK1 modulator inconclusive, D2 agonist 0.8 and Six1-Eya2 blk -4.
Screening Cc1cc(=O)oc2c(C(=O)/C=C\c3cccs3)c(O)ccc12 returned D2 PAM -23, TRPML1 ag 1.9, TRPML1 blocker -4, PINK1 modulator 5.2%, D2 agonist -1.4 and Six1-Eya2 blk 2.
For Cc1ccc(C)c(NC(=O)COC(=O)CNC(=O)C2CCCCC2)c1 the results were D2 PAM 1, TRPML1 ag 2.2, TRPML1 blocker -2, PINK1 modulator -0.2%, D2 agonist 9.2 and Six1-Eya2 blk -4.
Screening Cc1cccc(C)c1NC(=O)CSc1nc(-c2cccs2)cc(C(F)(F)F)n1 returned TRPML1 ag -0.5, TRPML1 blocker -5 and PINK1 modulator 26%.
For COc1ccc(NC(=O)c2cnn(-c3ccccc3)c2C)cc1OC the results were D2 PAM -1, TRPML1 ag 0.0, TRPML1 blocker 0, PINK1 modulator 3.7%, D2 agonist -1.5 and Six1-Eya2 blk -10.
Screening CN1CCN(c2nc3c(S(=O)(=O)c4ccc(Br)cc4)nnn3c3ccsc23)CC1 returned TRPML1 ag -0.1, TRPML1 blocker 8 and PINK1 modulator 0.7%.
COc1ccc(C(=O)Nc2ccc(Cl)cc2C(=O)NCc2ccco2)cc1OC was read as D2 PAM -13, TRPML1 ag 1.6, TRPML1 blocker 6, PINK1 modulator -0.6%, D2 agonist -2.6 and Six1-Eya2 blk -14.
For CN(NC(=O)COc1ccccc1)c1ccccc1 the results were D2 PAM -5, TRPML1 ag 0.2, TRPML1 blocker 37, PINK1 modulator -0.1%, D2 agonist -4.8 and Six1-Eya2 blk 8.
CCOc1cc(-c2sc(Nc3cc(C)ccc3OC)n[n+]2-c2ccccc2)ccc1OC was read as D2 PAM -15, TRPML1 ag 1.5, TRPML1 blocker 1, PINK1 modulator 14%, D2 agonist -3.9 and Six1-Eya2 blk -5.
CCc1cc(C(=O)NCCN(C)C)cs1 was read as D2 PAM -19, TRPML1 ag 1.6, TRPML1 blocker -1, PINK1 modulator 7.9%[38.3 µM], D2 agonist 3.5 and Six1-Eya2 blk 4.
Screening C[C@@H]1CN([C@@H](C)CO)C(=O)c2cccc(NC(=O)c3nc4ccccc4s3)c2O[C@@H]1CN(C)CC1CC1 returned TRPML1 ag 0.0, TRPML1 blocker -4, PINK1 modulator 2.5%, D2 agonist -6.5 and Six1-Eya2 blk -6.
N#CC1CN(Cc2ccccc2)CN(Cc2ccccc2)C1 was read as D2 PAM 2, TRPML1 ag -0.2, TRPML1 blocker -7, PINK1 modulator 3.1%, D2 agonist 1.7 and Six1-Eya2 blk -6.

Next section, starting with the last 3 of the part before.
CCc1cc(C(=O)NCCN(C)C)cs1 was read as D2 PAM -19, TRPML1 ag 1.6, TRPML1 blocker -1, PINK1 modulator 7.9%[38.3 µM], D2 agonist 3.5 and Six1-Eya2 blk 4.
Screening C[C@@H]1CN([C@@H](C)CO)C(=O)c2cccc(NC(=O)c3nc4ccccc4s3)c2O[C@@H]1CN(C)CC1CC1 returned TRPML1 ag 0.0, TRPML1 blocker -4, PINK1 modulator 2.5%, D2 agonist -6.5 and Six1-Eya2 blk -6.
N#CC1CN(Cc2ccccc2)CN(Cc2ccccc2)C1 was read as D2 PAM 2, TRPML1 ag -0.2, TRPML1 blocker -7, PINK1 modulator 3.1%, D2 agonist 1.7 and Six1-Eya2 blk -6.
For CCCn1nc(NS(=O)(=O)c2cccc3nonc23)c2cc3cc(C)ccc3nc21 the results were D2 PAM -12, TRPML1 ag 1.9, TRPML1 blocker 58, PINK1 modulator -1.2%, D2 agonist -9.9 and Six1-Eya2 blk -13.
CCCn1c(C(C)Nc2nc(-c3ccc(OC)cc3)cs2)nc2ccccc21 (stereo unspecified) was read as D2 PAM -4, TRPML1 ag 0.3, TRPML1 blocker 32, PINK1 modulator 0.3%, D2 agonist 0.9 and Six1-Eya2 blk -8.
`COc1ccc(Br)c(C(=O)OCC(=O)NC2CCCCCCC2)c1` gave D2 PAM -4, TRPML1 ag 0.0, TRPML1 blocker -1, PINK1 modulator 3.5%, D2 agonist -3.3 and Six1-Eya2 blk 4.
COCCNCCCCOc1ccc(Br)cc1C was read as D2 PAM -27, TRPML1 ag 0.3, TRPML1 blocker 3, PINK1 modulator 13%, D2 agonist -5.1 and Six1-Eya2 blk 25.
CCCCCCCCC(=O)NNC(=O)c1c(O)c2ccccc2n(CCC)c1=O was read as D2 PAM -1, TRPML1 ag 0.9, TRPML1 blocker -1, PINK1 modulator inconclusive, D2 agonist -6.0 and Six1-Eya2 blk -3.
For CN(C)c1nc(OCCOC(=O)c2ccccc2)nc(N(C)C)n1 the results were D2 PAM 0, TRPML1 ag 0.7, TRPML1 blocker -6, PINK1 modulator 1.1%, D2 agonist -3.9 and Six1-Eya2 blk 3.
`COc1ccccc1CCCNC(=O)C1CCC(=O)N(CCN2CCOCC2)C1` (stereo unspecified) gave D2 PAM -11, TRPML1 ag 0.0, TRPML1 blocker 10, PINK1 modulator 2.5%, D2 agonist 0.6 and Six1-Eya2 blk 15.
CCc1ccccc1NC(=O)Cn1nc(CC)n2c(cc3sccc32)c1=O was read as TRPML1 ag -0.6, TRPML1 blocker -15 and PINK1 modulator -0.8%.
`COc1ccc(C)cc1S(=O)(=O)N1CCC(C(=O)NCCc2ccccc2)CC1` gave D2 PAM -6, TRPML1 ag -0.1, TRPML1 blocker -2, PINK1 modulator 1.0%, D2 agonist -4.7 and Six1-Eya2 blk 4.
For N=C1C(c2ccccc2)=C(O)CN1c1cccc(S(=O)(=O)N2CCOCC2)c1 the results were D2 PAM 1, TRPML1 ag -0.2, TRPML1 blocker inconclusive, PINK1 modulator 1.5%, D2 agonist 1.5 and Six1-Eya2 blk 0.
For Cn1nnnc1SCc1ccccc1F the results were D2 PAM -9, TRPML1 ag -0.1, TRPML1 blocker 1, PINK1 modulator -1.3%, D2 agonist -2.5 and Six1-Eya2 blk 1.
Screening CCOC(=O)CSc1nc2c(c(=O)[nH]c(=O)n2C)n1Cc1ccccc1 returned D2 PAM -4, TRPML1 ag -0.2, TRPML1 blocker 17, PINK1 modulator 0.4%, D2 agonist -5.3 and Six1-Eya2 blk 7.
`CN(Cc1ccccc1)C(=O)c1ncn2c1c(=O)[nH]c1cccnc12` gave PINK1 modulator 1.0%, D2 agonist 1.4 and Six1-Eya2 blk -1.
`CCOc1ccc(OCC)c(Nc2cc(C)nc3nc(-c4ccco4)nn23)c1` gave TRPML1 ag 1.9, TRPML1 blocker 5 and PINK1 modulator -1.3%.
For O=C(NCCN1CCC(n2c(=O)[nH]c3ccccc32)CC1)c1ccc(F)cc1Cl the results were TRPML1 ag -0.6, PINK1 modulator 0.2% and Six1-Eya2 blk 5.
Screening N#CC1CCN(c2ncccc2[N+](=O)[O-])CC1 returned D2 PAM -7, TRPML1 ag -0.3, TRPML1 blocker 9, PINK1 modulator -1.2%, D2 agonist -2.0 and Six1-Eya2 blk -2.
For COc1cccc(CNC(=O)c2c(C)nn(-c3ccc(F)cc3)c2-n2cccc2)c1 the results were TRPML1 ag 3.8, TRPML1 blocker 46 and PINK1 modulator -1.0%.
For O=C(NC1=NN(c2ccccc2)CC1)Nc1ccccc1F the results were D2 PAM -4, TRPML1 ag -0.1, TRPML1 blocker -8, PINK1 modulator 3.6%, D2 agonist 6.3 and Six1-Eya2 blk -7.
Screening COc1ccc(-c2ccc(C)cc2)cc1[C@H]1[C@H]2C=CC[C@@H](C)[C@@H]2C(=O)N1Cc1ccccc1 returned D2 PAM -3, TRPML1 ag 0.0, TRPML1 blocker 7, PINK1 modulator -1.1%, D2 agonist -1.1 and Six1-Eya2 blk 5.
O=C(CN1CCN(CC(=O)Nc2ccccc2Cl)CC1)NCC1(N2CCOCC2)CCCCC1 was read as D2 PAM -25, TRPML1 ag 98*, TRPML1 blocker -10, PINK1 modulator 9.4%, D2 agonist -1.4 and Six1-Eya2 blk 0.
`Cc1nnc2ccc(-c3ccc(NS(=O)(=O)c4ccccc4[N+](=O)[O-])cc3)nn12` gave D2 PAM 1, TRPML1 ag -1.0, TRPML1 blocker -3, PINK1 modulator 2.5%, D2 agonist -3.4 and Six1-Eya2 blk -26.
O=C(c1cc2cc3ccc(Cl)cc3nc2o1)N1CCN(Cc2ccc3c(c2)OCO3)CC1 was read as D2 PAM -1, TRPML1 ag 1.0, TRPML1 blocker -5, PINK1 modulator 5.0%, D2 agonist 1.0 and Six1-Eya2 blk 0.
For CC(C)N(CCCNC(=O)C1CCN(C(=O)c2cc3sccc3n2C)CC1)Cc1ccccc1 the results were D2 PAM -16, TRPML1 ag -0.3, TRPML1 blocker 13, PINK1 modulator -0.6%, D2 agonist -0.7 and Six1-Eya2 blk -1.
CN(C(=O)c1cccc(NC(=O)Cc2ccc(NC(=O)C3CCCN(C(=O)C4CC4)C3)cc2)c1)C1CCCC1 (stereo unspecified) was read as TRPML1 ag 1.2, TRPML1 blocker 47, PINK1 modulator 1.1%, D2 agonist -1.3 and Six1-Eya2 blk -21.
For CCOC(=O)c1sc(NC(=O)c2c(C)nn(Cc3ccccc3)c2C)cc1C the results were D2 PAM 4, TRPML1 ag 0.4, TRPML1 blocker -2, PINK1 modulator 26%, D2 agonist 1.0 and Six1-Eya2 blk -11.
Screening COc1ccc(C(=O)c2sc(Nc3ccc(NC(C)=O)cc3)nc2C)cc1 returned D2 PAM 2, TRPML1 ag 1.6, TRPML1 blocker -19, PINK1 modulator 5.4%, D2 agonist -0.4 and Six1-Eya2 blk -4.
For COc1ccc(OC)c(-n2nnnc2SCC(=O)Nc2ccccc2N2CCOCC2)c1 the results were D2 PAM -8, TRPML1 ag 1.3, TRPML1 blocker 6, PINK1 modulator -0.7%, D2 agonist 4.2 and Six1-Eya2 blk 12.
O=C(CCc1ccccc1)N1CCN(c2ccccn2)CC1 was read as D2 PAM -16, TRPML1 ag -0.6, TRPML1 blocker 39, PINK1 modulator -0.4%, D2 agonist -4.7 and Six1-Eya2 blk -5.
CCOC(=O)C(NC(=O)C1C(C)N1S(=O)(=O)c1ccc(C)cc1)C(=O)OCC (stereo unspecified) was read as D2 PAM 0, TRPML1 ag -0.3, TRPML1 blocker -17, PINK1 modulator 0.4%, D2 agonist 0.1 and Six1-Eya2 blk 7.
For Cc1cc(C)nc(Sc2ncnc(N)c2[N+](=O)[O-])n1 the results were D2 PAM -3, TRPML1 ag -0.6, TRPML1 blocker -7, PINK1 modulator 6.2%, D2 agonist 0.2 and Six1-Eya2 blk 10.
Screening CCCC1(c2ccccc2)NC(=O)N(CCN2C(=O)c3ccccc3C2=O)C1=O (stereo unspecified) returned D2 PAM -8, TRPML1 ag -0.5, TRPML1 blocker 26, PINK1 modulator -2.2%, D2 agonist 0.4 and Six1-Eya2 blk 3.
Screening COc1ccc(C(=O)N2CCN(C(=O)c3ccc(-c4ccccc4)cc3)CC2)cc1OC returned D2 PAM -5, TRPML1 ag 1.5, TRPML1 blocker 51, PINK1 modulator 0.2%, D2 agonist -1.9 and Six1-Eya2 blk 2.
